D2 potentiator – Beta-Arrestin HTS for Positive Allosteric Modulators of the Human D2 Dopamine Receptor: Potentiators; AID 624464, 2012; DiscoveRx D2 beta-arrestin cells, luminescence, 90 min; 100% = 57 uM dopamine signal; 360,000 compounds, 0.23% hits; potentiation, % (concentration not given with the values); active = potentiation of 50% or more; inconclusive = 30% to 50%; inactive = 30% or less;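 further: tested on top of an EC20 dose of dopamine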
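PathHunter beta-arrestin assay in DiscoveRx D2 cells. Compounds were added with an EC20 of dopamine (50 nM final) for 90 min at 37 deg C. Luminescence was read 1 h after detection reagent, with 57 uM dopamine as the EC100 control.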
TRPML1 ag – qHTS for Agonists of the Human Mucolipin Transient Receptor Potential 1 (TRPML1). Mucolipin-1 (Homo sapiens), Q9GZU1. TRPML1-expressing cells, Ca2+ dye fluorescence, FDSS; host cell line not named in the record; reference of the full effect not given here. activation, % (concentration not given with the values). 410,000 compounds, 0.12% hits. AID 624414, 2012; in the data active = activation above about 50%; inconclusive = about 30% to 50%; inactive = below about 30%; further: 0% is about no effect; the text of the record puts the active cut at 80%
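Calcium fluorescence on an FDSS kinetic reader gave the read-out. Tet-induced TRPML1-DL cells were plated overnight, dye-loaded (Ca8 with quencher, 45-90 min, room temperature, dark), then read 110 s after compound addition, and again 110 s after 4uM final 54-4 (EC80).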
PINK1 modulator – A Quantitative High throughput Screen to Identify Chemical Modulators of PINK1 Expression; PINK1 immunofluorescence, high-content cytometry, 24 h; Potency, µM (highest dose often 76.6 µM), inactives show at the top dose activation (PINK1 increase), actives largely listed as activators; 410,000 compounds, 0.2% hits; active = well fitted activation curve with a large enough effect; inconclusive = small, poorly fitted or top-dose-only effect; inactive = flat fitted curve, though single readings scatter; cell line not stated here;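 further: potency means the concentration at half of the fitted maximal effect; % of control where 0% means no effect; nearly all actives have a fitted effect of over 65% in size; a mitochondrial uncoupler was the plate control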
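Stable cell line, 250 cells/well, 12 h attachment; compounds pinned at 5 concentrations, 24 h; CCCP control. Fixed with nuclear dye, primary antibodies 12 h at 10 degrees C, secondary plus cell stain; laser-scanning cytometer read.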
CtBP-E1A blk – qHTS Assay for Inhibitors of the CtBP/E1A Interaction | CtBP / adenovirus E1A interaction (AlphaScreen) | AlphaScreen GST-E1A/His-CtBP binding, 1536-well; stronger effect = lower value; control for the full effect not named in the record | activity change, % (test concentration not listed) | 340,000 compounds, 0.49% hits; in the data active means activity change below about -65%; inconclusive means about -30% to -65%; inactive means above about -30%; further: on the % scale 0 is the no-effect control and ±100 the full control effect
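Protein mix (5X: 125 nM each GST-E1A, His-CtBP) was incubated with pinned compound 2 h at 37 deg C in dark, in 50 mM Tris pH 8.0 buffer with 300 mM NaCl. Glutathione donor and nickel acceptor beads followed; AlphaScreen signal read after 1 h.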
Six1-Eya2 blk – qHTS Assay for Inhibitors of the Six1/Eya2 Interaction; AID 651725, 2012; Homeobox protein SIX1 (Homo sapiens) + Protein phosphatase EYA2 (Homo sapiens), …; 360,000 compounds, 0.56% hits; AlphaScreen GST-Six1/His-Eya2 binding, biochemical; stronger effect = lower value; control for the full effect not named in the record; activity change, % (no concentration beside the values); in the data active = activity change below about -65%; inconclusive = about -30% to -65%; inactive = above about -30%; further: on the % scale 0 is the no-effect control and ±100 the full control effect
Target sequence (O00167 whole entry, looked up): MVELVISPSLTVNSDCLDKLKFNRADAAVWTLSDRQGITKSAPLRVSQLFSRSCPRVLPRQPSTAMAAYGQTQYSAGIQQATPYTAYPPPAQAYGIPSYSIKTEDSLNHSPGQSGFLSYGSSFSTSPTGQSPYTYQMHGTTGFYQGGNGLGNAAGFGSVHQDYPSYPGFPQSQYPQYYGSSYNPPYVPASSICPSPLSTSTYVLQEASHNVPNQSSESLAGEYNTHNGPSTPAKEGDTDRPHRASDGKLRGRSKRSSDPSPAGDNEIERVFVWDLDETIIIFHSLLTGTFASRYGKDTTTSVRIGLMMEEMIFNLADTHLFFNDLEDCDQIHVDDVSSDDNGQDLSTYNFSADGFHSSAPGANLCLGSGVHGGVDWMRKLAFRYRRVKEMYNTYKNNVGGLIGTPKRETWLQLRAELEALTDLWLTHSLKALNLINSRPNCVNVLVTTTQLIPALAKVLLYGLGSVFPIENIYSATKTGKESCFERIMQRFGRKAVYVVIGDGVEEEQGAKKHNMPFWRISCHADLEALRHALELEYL
Target sequence (Q15475 whole entry, looked up): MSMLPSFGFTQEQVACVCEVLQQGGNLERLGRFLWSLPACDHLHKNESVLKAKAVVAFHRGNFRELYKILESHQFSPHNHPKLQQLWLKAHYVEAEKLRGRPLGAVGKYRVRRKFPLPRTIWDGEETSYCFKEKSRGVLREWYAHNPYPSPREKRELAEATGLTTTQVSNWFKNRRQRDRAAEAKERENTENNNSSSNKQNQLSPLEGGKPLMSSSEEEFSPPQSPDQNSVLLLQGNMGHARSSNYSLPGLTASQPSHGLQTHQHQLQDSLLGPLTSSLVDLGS
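AlphaScreen luminescence read after one hour at 37 °C in darkness. Pin-transferred compounds met GST-Six1 and His-Eya2 protein (5X stock 250 nM/500 nM) plus glutathione donor and Ni-chelate acceptor beads (5X, 50 ug/mL).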
D2 agonist – Beta-Arrestin HTS for Positive Allosteric Modulators of the Human D2 Dopamine Receptor: Agonists; D(2) dopamine receptor (Homo sapiens), P14416; DiscoveRx PathHunter D2 beta-arrestin, luminescence, 90 min; 100% = 57 uM dopamine signal; activation, % (concentration not given with the values); 360,000 compounds, 0.084% hits; AID 624465, 2012; in the data active = activation above about 40%; inconclusive = about 15% to 40%; inactive = below about 15%; further: the text of the record calls up to 30% inactive
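Agonist mode: compounds alone added to overnight-plated D2 PathHunter cells for 90 min at 37 C, with 57 uM final dopamine (EC100) defining full response. Beta-arrestin recruitment detected by chemiluminescent reagent, read after 1 h at ambient temperature.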
Numbers without * were called inactive; u = inconclusive; x = not tested or not shown; & = joins results of further samples; [ ] = dose if it differs, or a comment.

SMILES | D2 potentiator | TRPML1 ag | PINK1 modulator | CtBP-E1A blk | Six1-Eya2 blk | D2 agonist
COc1cc(CC(=O)N/N=C/c2ccc([N+](=O)[O-])cc2)c([N+](=O)[O-])cc1OC | -3.3 | 0.7 | -0.5% | 9.1 | 9.1 | 0.0
COc1cc(C(=O)N2CCN(CC(O)COc3ccccc3)CC2)cc(OC)c1OC (configuration not stated) | 1.8 | 0.2 | 2.1% | 10.2 | -5.0 | 3.7
CCc1cc(S(N)(=O)=O)cc(CC)c1NC(C)=O | -5.0 | 1.3 | -0.8% | 2.0 | 4.4 | -2.6
COc1ccc(-c2ccc3nnc(SCC(N)=O)n3n2)cc1 | 1.9 | 0.6 | 2.7% | 5.5 | -9.1 | -5.1
CCC(C)C(=O)Nc1ccccc1N1CCN(c2ccc(F)cc2)CC1 (configuration not stated) | -12.6 | -0.1 | 0.2% | -3.0 | -16.1 | -2.7
O=C(N1CCOCC1)N(Cc1ccccc1)c1ccccn1 | -0.7 | -0.2 | 0.5% | 1.5 | -2.4 | -3.0
O=C(Nc1nnc(SCc2ccc(F)cc2)s1)c1cccnc1Cl | 1.3 | 0.2 | 0.0% | -7.1 | -0.5 | 2.6
O=C(Nc1ccc(Nc2ccccc2)cc1)c1ccccc1 | -0.6 | 0.1 | 5.2% | x | 7.9 | 1.5
C[C@@H]1CN([C@@H](C)CO)C(=O)Cc2cc(NS(=O)(=O)c3ccccc3)ccc2O[C@H]1CN(C)S(C)(=O)=O | -4.7 | -0.4 | 1.2% | 9.8 | 0.0 | -3.0
Cc1ccc(Sc2c(O)c3ccccc3n(C)c2=O)cc1 | 1.5 | 4.1 | -0.6% | 8.5 | 4.0 | -0.2
Cc1ccc(OC(=O)N(C)C[C@@H]2OCc3cn(nn3)CCCC(=O)N([C@H](C)CO)C[C@H]2C)cc1 | -11.2 | 0.2 | 2.0% | -23.4 | 43.1 | -6.2
CCN1CCN(CCCN(Cc2cccs2)C(=S)Nc2ccccc2C)CC1 | -13.2 | 0.3 | 1.9% | 5.8 | -3.5 | 0.0
Cc1ccc(C2=CC(=O)C[C@H](c3ccc(F)cc3)C2)cc1 | -6.7 | 3.4 | 11.1% | 5.1 | 12.7 | -6.9
COc1ccc(N(CC(=O)N/N=C/c2ccco2)S(=O)(=O)c2ccccc2)cc1Cl | -9.8 | 2.8 | -0.3% | -8.2 | 10.5 | -2.1
CCn1c(SCC(=O)N(C)CC(=O)Nc2ccc(F)c(F)c2F)nnc1-c1ccco1 | -1.0 | -0.6 | 1.4% | 3.0 | 0.4 | -3.8
C=CCn1c(SCC(=O)Nc2c(C)n(C)n(-c3ccccc3)c2=O)nnc1-c1cccnc1 | -20.1 | 0.1 | 0.6% | 9.6 | 0.3 | -1.3
C=C(C)CSc1nnc2n(C)c(=O)c3c4c(sc3n12)CCC4 | -11.0 | 0.3 | 0.8% | -0.4 | -1.9 | -0.5
Cc1cccc2cc(CN(Cc3ccco3)C(=O)c3cccs3)c(=O)[nH]c12 | 16.8 | -0.6 | 1.8% | -0.2 | 1.7 | 1.0
CCN1CCN(C(=S)Nc2cccc(Cl)c2)CC1 | -0.3 | 0.5 | -1.2% | x | 11.7 | 3.5
CCC(=O)c1cc2c(cc1NC(=O)c1cccs1)OCCO2 | -6.5 | -0.2 | u | 10.8 | 2.9 | 0.7
CCCCn1c(N)c(N(CCOC)C(=O)c2cc(CC)c(C)s2)c(=O)[nH]c1=O | -4.5 | 0.1 | 2.8% | -24.0 | -0.7 | 1.1
CSc1ccccc1OCc1cc(C(=O)N2C[C@H]3CC[C@H]2C3)no1 | -2.9 | 2.8 | 0.3% | 10.5 | -3.6 | -3.2
C#CCOCCOCCOCCNc1nc(N2CCN(C(=O)[C@H](CCC(=O)O)n3cc(C(N)CC(C)C)nn3)CC2)nc(N2CCN(C(=O)[C@H](Cc3cc4ccccc4[nH]3)n3cc(C(N)[C@H](C)CC)nn3)CC2)n1 (some centres not stated) | 0.2 | -0.4 | 2.7% | -23.7 | -16.8 | -0.5
O=C(c1ccc(Oc2ccc(C(F)(F)F)cn2)cc1)N1CCN(c2ccccc2)CC1 | -7.4 | 5.2 | -0.6%[38.3 µM] | -6.1 | -11.1 | -2.8
CCn1c(=O)c(C(=O)NCCc2ccc(OC)c(OC)c2)c(O)c2ccccc21 | 0.4 | 0.5 | 3.7% | x | -5.2 | 0.6
O=C1NC(c2cccc([N+](=O)[O-])c2)Oc2ccccc21 (configuration not stated) | -6.0 | -0.7 | 1.2% | -5.6 | -5.9 | -1.8
Cc1oc(C(C)(C)C)c(CN2CCOCC2)c1C(=O)O | 4.8 | 0.8 | 0.0% | 2.7 | 11.3 | -3.0
Cc1cc(C(=O)COC(=O)CCc2nc3ccccc3s2)c(C)n1C | -4.8 | 3.7 | -2.1% | -21.9 | -11.8 | -0.5
CCCCN(C(=O)CCCc1nc2ccccc2c(=O)[nH]1)c1c(N)n(CCCC)c(=O)[nH]c1=O | 2.2 | -0.1 | -2.2% | -0.8 | 3.3 | -2.2
Cc1c(Cl)c(=O)oc2cc(OC(C)C)ccc12 | 1.1 | 0.9 | 2.4% | 2.9 | 13.4 | -2.2
Cc1sc2nc3c4ccccc4c(NCc4ccco4)nn3c(=O)c2c1C | 4.4 | -0.1 | 3.3% | u | u | 0.6
O=C(NN=Cc1ccccc1)NN=Cc1ccccc1 | -5.4 | -0.8 | 1.6% | -8.5 | -2.2 | -1.6
Nc1nc(=O)n(C2CCCCO2)cc1Br (configuration not stated) | -18.9 | 1.1 | 0.8% | 5.0 | 5.1 | 2.1
COc1ccc(NC(=O)C2=C(C)Nc3ncnn3C2c2ccccc2C(F)(F)F)c(OC)c1 (configuration not stated) | 2.5 | -0.5 | 2.0% | -6.2 | 3.8 | 4.0
CCC(=O)c1ccc(OCC(O)Cn2cnc3ccccc32)cc1 (configuration not stated) | -3.9 | -0.6 | 3.3% | -4.0 | -18.9 | -2.6
CCN(CC)S(=O)(=O)c1ccc2[nH]cc(C(=O)NCCCN3CCCCC3C)c(=O)c2c1 (configuration not stated) | -1.0 | 0.1 | 1.6%[38.3 µM] | 0.4 | 1.6 | 2.9
CCOc1ccc(C(=O)Nc2sc3c(c2C(=O)OC)CC(C)(C)NC3(C)C)cc1 | -5.0 | -0.3 | 0.4% | 3.0 | 5.8 | -5.5
COc1cc(CC2C(=O)Nc3ccccc32)cc(C)c1O (configuration not stated) | 3.0 | -1.0 | 0.4% | -1.4 | 19.3 | 1.3
COc1cc(NC(=O)c2ccccc2NS(=O)(=O)c2ccc(Cl)s2)cc(OC)c1 | -6.2 | 1.2 | u | 8.1 | -11.0 | -7.3
Cc1ccc(C(=O)CN2C(=O)NC3(CCc4ccccc43)C2=O)s1 (configuration not stated) | -4.6 | 0.5 | 2.4% | 3.8 | -0.4 | -3.7
O=C1CSc2nc3ccccc3n21 | -0.3 | -0.3 | 6.4%[38.3 µM] | 0.0 | 7.0 | 0.1
COc1ccc(NC(=O)c2ccco2)cc1NC(=O)c1ccco1 | -8.9 | 0.3 | -3.3% | 3.0 | 2.5 | -2.4
CCC(C)(C)NC(=O)C(c1ccccn1)N(C(=O)c1csnn1)c1ccc(C)c(C)c1 (configuration not stated) | 0.6 | 0.9 | 0.0% | -14.7 | 7.7 | 0.8
Nc1nc(-c2ccccc2)c(CCCNc2ccccc2)c(=O)[nH]1 | -13.4 | -0.6 | 0.1% | 5.8 | -18.4 | -2.2
COc1ccc2[nH]c3nc(SCc4nnc(-c5ccc(C)cc5)o4)nnc3c2c1 | -2.5 | 0.3 | u | -6.0 | -11.3 | 0.3
CCCCCC(=O)NN1C(=S)N(c2ccc(OC)cc2)C(=O)C1CC(=O)Nc1ccccc1 (configuration not stated) | -1.5 | 0.0 | 0.2% | -12.8 | -7.4 | -3.1
COc1cc(S(=O)(=O)N(Cc2ccc(C)cc2)C2CCCCC2)ccc1-n1cnnn1 | -9.9 | 1.1 | 7.5%[38.3 µM] | -0.1 | -1.1 | -3.1
CCCS(=O)(=O)N1CCCC(C(=O)NCCN(C)Cc2ccccc2)C1 (configuration not stated) | -21.0 | -0.7 | -3.0% | -4.4 | -14.6 | -3.4
CN(CC(=O)Nc1ccccc1Br)CC(=O)Nc1ccccc1C(F)(F)F | -5.1 | -0.4 | -1.3% | 4.6 | -8.6 | -4.5
COCCN1C(=O)N[C@@H](CCc2ccccc2)[C@H](C(C)=O)[C@H]1C | 3.2 | 0.2 | -0.5% | 6.2 | 1.7 | -2.4
O=C(CN1CCOCC1)N1c2ccccc2Sc2ccccc21 | -7.9 | 0.2 | 1.0% | 1.6 | -2.6 | -2.0
COc1ccccc1NC(=S)N(CCN1CCCCCC1)Cc1cccs1 | -17.5 | 2.0 | -0.3% | -8.3 | 1.9 | -1.1
Nc1ccccc1SCCS(=O)(=O)c1ccc(Cl)cc1 | -0.8 | 1.2 | 0.2% | x | -2.4 | -4.5
C/C(CCc1ccc2c(c1)OCO2)=N\N=C1\NC(=O)CC(C(=O)Nc2ccc(Cl)cc2)S1 (configuration not stated) | -8.7 | -0.4 | 0.8%[38.3 µM] | -5.3 | -0.8 | -1.1
CC1(CCc2ccc3c(c2)OCO3)NCCc2c1[nH]c1ccccc21 (configuration not stated) | -18.3 | 0.8 | 3.2% | x | u | -4.8
COc1cccc(-c2cc(C(=O)N3CCN(c4ccccc4OC)CC3)no2)c1 | -3.9 | -1.0&1.3 | -2.8%&-0.4% | 0.6 | -15.2 | -5.5
CCCCCCNc1nc(-c2ccc(OC)cc2)c(CCC(=O)O)s1 | -15.3 | -0.1 | 2.8% | -8.7 | -11.0 | -4.1
Cc1cccc(C(=O)O/N=C(\N)CS(=O)(=O)c2ccccc2)c1 | -8.8 | 0.6 | 1.7% | 3.5 | 0.5 | -3.3
O=C(NCc1cccnc1)c1cc(C2CCCN(C(=O)c3ccccn3)C2)on1 (configuration not stated) | 3.2 | -0.6 | 0.9% | 2.7 | 9.6 | -3.3
O=C(NCc1ccncc1)C(=O)C1C(=O)Nc2ccccc21 (configuration not stated) | -3.4 | 0.2 | 2.0% | -7.1 | 5.1 | -6.6

Exported field by field: part of the list above.
O=C(CN1CCOCC1)N1c2ccccc2Sc2ccccc21
  D2 potentiator = -7.9
  TRPML1 ag = 0.2
  PINK1 modulator = 1.0%
  CtBP-E1A blk = 1.6
  Six1-Eya2 blk = -2.6
  D2 agonist = -2.0
COc1ccccc1NC(=S)N(CCN1CCCCCC1)Cc1cccs1
  D2 potentiator = -17.5
  TRPML1 ag = 2.0
  PINK1 modulator = -0.3%
  CtBP-E1A blk = -8.3
  Six1-Eya2 blk = 1.9
  D2 agonist = -1.1

High-throughput results: PubChem BioAssay, National Center for Advancing Translational Sciences (NCATS)
